Screening results: PubChem BioAssay, several laboratories
FPRL1 ligand: human FPRL1 ligand, with FPR counter-screen. P25090. FPRL1-expressing cells, fluorescent ligand binding inhibition, flow cytometry. inhibition, %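 (tested at 6.7 µM)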. actives 0.3% (n = 24,000);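 also: 0% = buffer alone and 100% = receptor blocker peptide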
Target sequence (P25090 whole entry, looked up): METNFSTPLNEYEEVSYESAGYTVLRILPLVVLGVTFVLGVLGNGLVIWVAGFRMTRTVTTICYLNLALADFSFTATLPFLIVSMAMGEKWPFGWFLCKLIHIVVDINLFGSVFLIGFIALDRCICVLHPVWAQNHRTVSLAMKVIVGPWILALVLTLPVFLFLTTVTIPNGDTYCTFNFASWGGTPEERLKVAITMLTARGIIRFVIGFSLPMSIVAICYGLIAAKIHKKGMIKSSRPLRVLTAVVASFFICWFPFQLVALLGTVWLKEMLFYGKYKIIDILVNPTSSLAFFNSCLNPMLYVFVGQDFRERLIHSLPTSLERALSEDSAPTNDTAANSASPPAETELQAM
FPR ligand: human FPR ligand, with FPRL1 counter-screen; P21462; FPR-expressing cells, fluorescent ligand binding, flow cytometry; inhibition, %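 (tested at 6.7 µM)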; actives 0.74% (n = 24,000);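 also: 0% = buffer wells and 100% = receptor blocker peptide wells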
VCAM-1 down: inhibitors of TNFa-induced VCAM-1 surface display, cell-based, plate reader, pooled HUVEC, TNFa stimulus (AID 454) | actives 0.2% (n = 10,000) | HUVEC TNFa-induced VCAM-1 surface immunofluorescence, plate reader; numbers were filed only for top-ranked candidate wells | inhibition, % at 5 µM;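 active = compound among top-ranked inhibitors of TNF-induced VCAM-1 adhesion protein staining, with the hit upheld by image or statistical review; inactive = the rest, including hits rejected on review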;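 also: 0% = TNFa with vehicle and 100% = cells without TNFa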
VCAM-1 up imaging: enhancers of VCAM-1 display on endothelial cells, imaging, high-content imaging, pooled HUVEC, TNFa stimulus (AID 457); calls only; actives 0.2% (n = 10,000); Pooled HUVEC, TNFa-induced VCAM-1 immunofluorescence imaging; hits of this screen are not shown here;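 active = a top-ranked rise in VCAM-1 staining upheld on image or statistical review; inactive = the rest, including candidates rejected on review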;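 also: compounds tested at 5 µM in the well; cells exposed to compound for 24 hours before fixing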
VCAM-1 down imaging: inhibitors of TNFa-induced VCAM-1 surface display, imaging, high-content imaging, pooled HUVEC, TNFa stimulus (AID 456); HUVEC TNFa-induced VCAM-1 surface expression, immunofluorescence imaging; numbers were filed only for top-ranked candidate wells; inhibition, % at 5 µM, or IC50 in µM where a hit was titrated; actives 0.2% (n = 10,000);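 active = top tenth filtered wells with inhibition above zero that passed visual or statistical confirmation; inactive = the rest, including hits rejected on review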;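 also: 0% = stimulated vehicle wells and 100% = unstimulated cells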
An asterisk follows results filed as active; i = inactive; x = no result given.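 The calls were made as follows, unless noted: active = mean above 30%; inconclusive = self-fluorescent; inactive = the rest.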

1) CSc1ccc(C(=O)C(C)(C)N2CCOCC2)cc1
2) CCCCn1c(C)c(C(=O)OCC)c2c(CN3CCOCC3)c(O)ccc21
3) CCN1c2nc3ccccn3c(=O)c2CC2(C(=O)N(C)C(=O)N(C)C2=O)C1C (configuration not stated)
4) CCn1c(=O)n(CC(=O)N2CCC3(CC2)OCCO3)c(=O)c2ccccc21
5) CN1C(=O)CN=C(c2ccc(Cl)cc2)c2cc(Cl)ccc21
6) Cc1ccc(CC2C(=O)N(C)C(=O)N(C)C2=O)s1
7) COc1ccc(N2CCN(CCCN)CC2)cc1
8) O=C1CC(N2CCC(n3c(=O)[nH]c4ccccc43)CC2)C(=O)N1c1ccc(F)cc1 (configuration not stated)
9) CC(NC(=O)Oc1ccccc1)C(c1cccs1)N1CCOCC1 (configuration not stated)
10) CC(=O)[C@@]1(O)CC[C@H]2[C@@H]3CC=C4C[C@@H](O)CC[C@]4(C)[C@H]3CC[C@@]21C

| Screen / compound no. | 1 | 2 | 3 | 4 | 5 | 6 | 7 | 8 | 9 | 10 |
| --- | --- | --- | --- | --- | --- | --- | --- | --- | --- | --- |
| FPRL1 ligand | -0.7 | -4.3 | -2.0 | 0.4 | 0.6 | 2.0 | -3.9 | 1.5 | -11.9 | -2.8 |
| VCAM-1 up imaging | i | i | i | x | i | i | i | i | x | i |
| FPR ligand | 3.7 | 3.9 | 7.1 | -1.8 | -7.9 | 5.7 | 1.9 | 5.4 | -4.4 | -4.0 |
| VCAM-1 down imaging | i | i | i | x | i | i | i | i | x | i |
| VCAM-1 down | i | i | i | x | 78.1 | i | i | i | x | i |

11) O=C(Cn1cnc2sc3c(c2c1=O)CCCC3)NCCC(=O)N1CCC2(CC1)OCCO2
12) O=C1OCCC1NC1=NCCC1 (configuration not stated)
13) C[N+]1(C)CCc2cc3c(cc2[C@H]1[C@@H]1OC(=O)c2c1ccc1c2OCO1)OCO3
14) Cc1nc2cc(C(=O)N3CCC4(CC3)OCCO4)ccc2n1-c1ccc(Br)cc1
15) O=C(CN1C(=O)CCSc2ccccc21)N1CCC2(CC1)OCCO2

| Screen / compound no. | 11 | 12 | 13 | 14 | 15 |
| --- | --- | --- | --- | --- | --- |
| FPRL1 ligand | 2.8 | 1.1 | -3.3 | 0.0 | 9.1 |
| VCAM-1 up imaging | x | i | i | x | x |
| FPR ligand | 3.0 | -16.0 | 11.0 | 1.1 | 0.0 |
| VCAM-1 down imaging | x | i | i | x | x |
| VCAM-1 down | x | i | i | x | x |

5 compounds out of the list, sorted by count of non-hydrogen atoms, falling:
8) O=C1CC(N2CCC(n3c(=O)[nH]c4ccccc43)CC2)C(=O)N1c1ccc(F)cc1 (configuration not stated)
14) Cc1nc2cc(C(=O)N3CCC4(CC3)OCCO4)ccc2n1-c1ccc(Br)cc1
15) O=C(CN1C(=O)CCSc2ccccc21)N1CCC2(CC1)OCCO2
10) CC(=O)[C@@]1(O)CC[C@H]2[C@@H]3CC=C4C[C@@H](O)CC[C@]4(C)[C@H]3CC[C@@]21C
12) O=C1OCCC1NC1=NCCC1 (configuration not stated)

| Screen / compound no. | 8 | 14 | 15 | 10 | 12 |
| --- | --- | --- | --- | --- | --- |
| FPRL1 ligand | 1.5 | 0.0 | 9.1 | -2.8 | 1.1 |
| VCAM-1 up imaging | i | x | x | i | i |
| FPR ligand | 5.4 | 1.1 | 0.0 | -4.0 | -16.0 |
| VCAM-1 down imaging | i | x | x | i | i |
| VCAM-1 down | i | x | x | i | i |

The list is partial; the hit share may differ from the screen's.
